Calb biofilm kill: clotrimazole potentiators killing C. albicans biofilm, primary screen, 4-compound mixtures; C. albicans biofilm persisters + clotrimazole, fluorescence viability; primary screen in compound mixtures of four per well; inhibition, % at 7.6 µM; 120,000 compounds, 0.02% hits; AID 1242, 2008;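 active = inhibition above 30.3% in the primary screen of four-compound pools, then above 30% when the compound was retested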;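 note: compounds exposed to preformed 24 h biofilms for 48 h; the number belongs to the whole pool; some results filed as inactive read as strong as hits; inactives centre near 12; 0% = biofilm with clotrimazole alone and 100% = kill control; retested singly at about 60 µM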
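Incubation: 24 h biofilm formation, then 48 h compound exposure, 37 °C | Material: C. albicans biofilms | Buffer or medium: RPMI/MOPS medium, pH 7.0 | Measured by: 2-h Alamar Blue fluorescence, 535/590 nm excitation/emission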
Active calls of the source: *. This is a subset (hit frequency here may not be typical).

smiles | Calb biofilm kill
COC(C[C@@H](O)[C@@H](C)[C@H](O)COCc1ccccc1)OC | 15.3
O=C(NCc1cccnc1)c1ccc(COc2ccccc2Cl)cc1 | 21.9
Cc1nc2ccc(NC(=O)c3ccco3)cc2s1 | 18.9
O=C(NC(=S)Nn1cnnc1)c1ccccc1Cl | 18.8
C=CCc1cccc2cc(C(=O)Nc3ccc(NC(C)=O)cc3)c(=O)oc12 | 20.5
N#Cc1ccc(N2Cc3ccccc3C2=NC(=O)c2cccnc2Cl)cc1 | 19.0
Cc1cc(NC(=O)c2cccc(S(=O)(=O)N3c4ccccc4CC3C)c2)no1 (stereo not drawn) | 13.7
Cc1onc(-c2ccccc2Cl)c1C(=O)NNC(=O)C1CCN(Cc2ccccc2)CC1 | 7.2
CN1C(C(=O)Nc2ccccn2)=C(O)c2ccccc2S1(=O)=O | 7.4
c1ccc(CCN(Cc2ccccc2)C2CCN(C3CCCC3)CC2)cc1 | 5.8
CCN1CCCC1CNC(=O)Cn1cnc2sc(C)c(S(=O)(=O)N3CCC(C)CC3)c2c1=O (stereo not drawn) | 20.0
CCOC(=O)CN(C(=O)COc1nc(C)cc(C)c1C#N)c1ccc(Cl)cc1 | 13.1
COc1cc(C=O)ccc1OCc1cccc(Br)c1 | 4.5
COc1cc(C(=O)Nc2ccc(S(=O)(=O)Nc3nccc(C)n3)cc2)c([N+](=O)[O-])cc1OC | 19.2
CC(C)(C)c1ccc(C(=O)NC(=S)Nc2nc3c(s2)CCCC3)cc1 | 5.8
Cc1cc(NC(=O)CSc2nnc(C3CC3)n2N)c([N+](=O)[O-])cc1C | 22.6
CCOC(=O)N1CCC(N2Cc3cccc(C(=O)N4CCN(c5cccc(Cl)c5)CC4)c3C2=O)CC1 | 18.6
CC(C(=O)NCC1(c2ccccc2)CCOCC1)N1CCOCC1 (stereo not drawn) | -2.8
O=S(=O)(c1ccccc1Br)N1CCC(O)(c2cccnc2)CC1 | 28.2
CCn1c(SCC(=O)NNC(=S)Nc2ccccc2)nnc1-c1ccc(Cl)cc1 | 7.9
O=S(=O)(Nc1cccc(-c2cn3c(n2)SCC3)c1)c1cccs1 | -2.0
COc1ccc(S(=O)(=O)Nc2ccc3oc4ncccc4c(=O)c3c2)cc1OC | 27.7
COc1ccc(/C=N/NC(=O)c2ccc(-c3ccccc3)cc2)cc1O | 19.8
COC(=O)c1ccc(COc2ccc(C=O)cc2OC)o1 | 18.1
CC(=O)c1ccc(Nc2ccc(-c3ccccc3F)nn2)cc1 | 18.7
O=S(=O)([O-])CCC[N+]1(CC#Cc2ccccc2)CCCCC1 | 29.2
O=[N+]([O-])c1ccc(/C=C2\CCC(C3=CCCC3)=C2N2CCOCC2)cc1 | 10.5
Cc1sc2ncnc(SCC(=O)N(C(C)C)C(C)C)c2c1C | 11.3
CC(=O)N(C)c1ccc(NS(=O)(=O)c2cc(Cl)ccc2Cl)cc1 | 7.6
Cc1cccc(N=C2NC(=O)/C(=C/C=C/c3ccco3)S2)c1 | 2.7
O=C(Oc1cccc(OC(=O)N2CCCCC2)c1)N1CCCCC1 | -8.1
COc1ccc(C2CC23N=C(c2ccccc2)OC3=O)cc1 (stereo not drawn) | 9.1
O=C(COc1ccc(F)cc1Br)N1CCN(c2ncccn2)CC1 | 6.2
CN(C(=O)COc1ccccc1)c1nc(-c2ccc(F)cc2)cs1 | 11.2
CCC(=O)Nc1ccc(C(=O)CSc2nc3ccccc3[nH]2)cc1 | 8.1
CC(=O)Nc1ccc(S(=O)(=O)NCCC(=O)Nc2ccc(C)c(Cl)c2)cc1 | 12.3
O=C(c1ccc([N+](=O)[O-])cc1[N+](=O)[O-])N1CCCC1 | 14.5
CC(C)COCc1ccc(O)c2ncccc12 | 13.9
CCCOC(=O)c1c(NC(=O)CCCn2nc([N+](=O)[O-])c(Cl)c2C)sc(C(=O)OC)c1C | 15.4
COc1ccc2cc(OC)c(C(=O)N3CCOCC3)cc2c1 | 28.6
Cc1c(O)ccc2c(CN3CCN(C/C=C/c4ccccc4)CC3)cc(=O)oc12 | 27.5
CCN(CC)C(=O)c1ccc(N)cc1 | 19.3
Cc1c(C(=O)C(=O)N2c3ccccc3CC2C)c2ccccc2n1C (stereo not drawn) | 2.6
CC(=O)Nc1ccc(S(=O)(=O)NNC2=NS(=O)(=O)c3ccccc32)cc1 | 13.7
C=CCn1cnc2c(nnn2-c2cc(C)cc(C)c2)c1=O | 4.5
CCc1cccc(CC)c1NC(=O)CSc1nc2ccc(N3C(=O)C4C(C3=O)[C@H]3C=C[C@@H]4C3)cc2s1 (stereo partly drawn) | 14.3
O=C(Nc1ccc(Br)cc1)c1ccc(F)c(S(=O)(=O)N2CCN(c3ccccn3)CC2)c1 | 7.7
Nc1ccnn1Cc1cccs1 | 7.4
Cc1ccc(/C(O)=C/C(=O)C(=O)NC23CC4CC(CC(C4)C2)C3)cc1 | 17.3
N#CC1=C(N)Oc2ccc3ccccc3c2C1c1cccnc1 (stereo not drawn) | -4.4

New compounds follow.
smiles | Calb biofilm kill
Cc1cc(C)n2c(SCc3nnc(-c4cccs4)o3)nnc2n1 | -2.1
C=CCn1nnnc1-c1cccc(Cl)c1 | 17.3
Cc1cc(NC(C)C)n2c(nc3ccccc32)c1C#N | 14.2
Cc1ccc(NC(=O)CCS(=O)(=O)c2ccccc2)cc1S(=O)(=O)N1CCOCC1 | 3.7
O=C(NC(=O)c1ccc(C(F)(F)F)cc1)Nc1ccc(-c2cnco2)cc1 | 30.3
Cn1nc(-c2ccccc2)c2ncc(C(F)(F)F)cc21 | 17.1
CCc1cc2c(=O)c(-c3nc4ccccc4n3C)c(CCCC(=O)O)oc2cc1OC(=O)C(C)(C)C | 14.2
O=C(Nc1ccc(NC(=O)c2cc([N+](=O)[O-])ccc2N2CCOCC2)cc1)c1cccs1 | -0.7
Cc1ccc[n+](Cc2ccc([N+](=O)[O-])cc2)c1 | 18.4
CC(=O)c1cccc(NC(=O)CCCOc2ccc(C)cc2)c1 | -1.6
CC(C)N1CCc2c(sc(NC(=O)c3cc(-c4cccs4)nc4ccccc34)c2C(N)=O)C1 | 13.6
CCOC(=O)CCCN1CC(O)=C(c2nc(-c3ccc(Cl)cc3)cs2)C1=N | 2.4
Cc1ccc(Nc2nc(-c3ccc(S(=O)(=O)N4CCOCC4)cc3)cs2)cc1Cl | 13.2
COc1ccc(/C=N/N2CCN(C3c4ccccc4-c4ccccc43)CC2)cc1OC | 9.2
Cc1cc(NC(=O)C2Oc3ccccc3OC2C)no1 (stereo not drawn) | 10.3
Cc1ccc(S(=O)(=O)NCC(=O)OCC(=O)N2N=C(c3ccc(Cl)cc3)CC2c2ccco2)cc1C (stereo not drawn) | 11.5
O=C(COC(=O)c1cc(-c2cccnc2)nc2ccccc12)Nc1ccc(F)cc1F | 15.2
CC(C)c1csc(CN2CCCC(CCC(=O)NCc3ccccc3F)C2)n1 (stereo not drawn) | 10.0
CCOC(=O)N1CCN(C(=O)COc2ccc([N+](=O)[O-])cc2)CC1 | 16.6
O=C(C1=NN[C@@H]2C(=O)N(c3cccc(C(F)(F)F)c3)C(=O)[C@H]12)C(c1ccccc1)c1ccccc1 | 18.8
O=C(Cn1c(COc2ccccc2)nc2ccccc21)Nc1cc(Cl)c(Cl)cc1Cl | 11.1
CCOC(=O)C1CCCN(C(=O)c2cc3cc(Br)ccc3oc2=O)C1 (stereo not drawn) | 14.9
COCC(=O)NNC(=O)c1ccccc1OC | 16.8
O=C(CSc1nnnn1C1CCCC1)N1CCOCC1 | 10.2
O=C(CC12CC3CC(CC(Br)(C3)C1)C2)NC1=NCCS1 | 11.8
COc1ccc(F)cc1S(=O)(=O)n1nnc2ccccc21 | -2.8
CN1CCCN(C(=O)C2CCCCC2)CC1 | 17.7
Cc1cc2cc(C(=O)N3CCc4c([nH]c5ccccc45)C3c3ccccn3)ccc2o1 (stereo not drawn) | 16.6
CCNC(=S)Nc1ccccc1-c1ccccc1 | 8.2
CCC(C)Nc1nc2c(c(=O)n(C)c(=O)n2C)n1C (stereo not drawn) | 5.4
Cn1ccnc1C(O)(c1ccccc1)c1ccccc1 | -2.2
Cc1ccc(OCCn2c(=S)[nH]c3c(N)ncnc32)cc1 | 4.0
CC(C(=O)Nc1ccccc1Oc1ccccc1)c1ccccc1 (stereo not drawn) | 14.4
O=C(O)c1cccc(N2C(=O)c3cccc4c(Cl)ccc(c34)C2=O)c1 | -4.5
CC(C)c1c(O)cc(-c2ccncc2)n(-c2ccc(Cl)cc2)c1=O | 12.8
Nc1nonc1C(=O)NCCNc1ccc([N+](=O)[O-])cc1 | 16.9
COc1cccc(-c2nnc(NC(=O)c3cccc(F)c3)o2)c1 | 14.8
CCO[C@@H]1OC(C(=O)N2CCN(Cc3ccc4c(c3)OCO4)CC2)=C[C@H](c2ccc(Br)cc2)[C@H]1CCCO | 22.4
COc1ccc(Nc2ccc(N3C(=O)CC(C)C3=O)cc2[N+](=O)[O-])cc1OC (stereo not drawn) | 13.3
COC(=O)c1ccc(CSc2nnc3nc(C)cc(C)n23)cc1 | 8.9
COc1cc2oc(=O)cc(C)c2c(OC)c1OC | 7.9
COc1ccc(-c2[nH]ncc2CN(CC2CCC(=O)N2)C(C)C)cc1F (stereo not drawn) | 5.8
C#CC(C)(CC)NC(=O)c1cc2nc(C3CC3)cc(C(F)(F)F)n2n1 (stereo not drawn) | 7.3
COc1cc(NC(=O)c2cncc(-c3ccc(C#N)cc3)c2)cc(C(=O)Nc2cccc(C(F)(F)F)c2)c1 | 14.1
Cc1ccccc1/C=C/C(=O)NCC(=O)N1CCC(N(C)C2CCCCC2C)CC1 (stereo not drawn) | 13.6
CCn1c(=N)c(S(=O)(=O)c2ccc(C)cc2)cc2c(=O)n3ccccc3nc21 | 6.2
COc1ccc(CC(=O)NC(C)c2nnc(SCC(=O)Nc3ccccc3)n2C)cc1 (stereo not drawn) | 10.7
CCOC(=O)CCNC(=O)CCNC(=O)C(c1ccccc1)c1ccccc1 | 26.9
Cc1ccc(C(=O)Nc2ccccc2C(=O)NCc2ccccc2)cc1 | 10.6
COc1ccc(CN2CNc3c(c(=O)n(C)c(=O)n3C)C2)cc1 | 12.2

Further entries:
smiles | Calb biofilm kill
CN(C(=O)COC(=O)CCc1nc2ccccc2c(=O)[nH]1)C1CCS(=O)(=O)C1 (stereo not drawn) | 17.4
O=C(NCc1cccnc1)c1cccs1 | 9.3
Nc1nnc(CC(=O)N/N=C/c2cc([N+](=O)[O-])cc(Br)c2O)s1 | 3.4
c1ccc(CCN(Cc2ccccc2)Cc2nc(C3CC3)no2)cc1 | -8.1
O=C1N(Cc2cccnc2)C[C@@H]2C[C@@H](c3cccc(OCc4ccccc4)c3)N3CCC[C@@]123 | 8.5
O=C(NC(=S)Nc1ccc2[nH]c(=O)[nH]c2c1)c1cncc(Br)c1 | 9.6
COC(=O)c1cc(-c2ccc(S(=O)(=O)N3CCCC3)cc2)c(C(F)(F)F)s1 | 19.6
c1ccc(CN2CCC(Nc3ncnc4sccc34)CC2)cc1 | 13.8
C=CCN(CC=C)C(=S)NC(=O)c1ccc(OC)cc1 | -1.5
CCOC(=O)c1c(NC(=O)C(=O)N/N=C/c2ccccc2OC)sc2c1CCCCC2 | 23.2
COC(=O)c1c(-c2ccccc2)csc1NC1=NS(=O)(=O)c2ccccc21 | -5.5
CCOc1ccc(CCNC(=O)COc2cc(=O)n(C)c3ccccc23)cc1OCC | -7.5
Cn1cnnc1SCC(=O)NC1CCCc2ccccc21 (stereo not drawn) | 5.1
O=C(CCCCn1c(=O)c2ccccc2n(Cc2ccccc2)c1=O)NC1CCN(Cc2ccccc2)CC1 | 7.7
O=C(/C=C/c1ccccc1)n1cnnc1SC/C=C/c1ccccc1 | 19.6
Cc1ccc(Nc2ccc3nonc3c2[N+](=O)[O-])cc1 | 6.3
COc1ccc(NS(=O)(=O)c2c(F)cc(F)c(Cl)c2F)cc1S(=O)(=O)N1CCCCC1 | 20.0
O=C(CSc1nnc(-c2ccc(F)cc2)c2ccccc12)Nc1c(F)cccc1F | 15.3
CCN1CCc2c(sc(NC(=S)NC(=O)c3ccc(Cl)cc3)c2C(N)=O)C1 | 12.6
O=C(/C=C/c1ccco1)c1ccc(NC(=O)C23CC4CC(CC(C4)C2)C3)cc1 | 5.5
Cc1ccc2c(c1)c1ncn(Cc3ccc(F)cc3)c(=O)c1n2C | 7.9
N#CC(C(=S)Nc1ccccc1)c1nc2ccccc2[nH]1 (stereo not drawn) | 13.2
COc1ccc(CC(=O)NC(C)c2nnc(SCC(=O)c3ccc(OC)cc3)n2C)cc1 (stereo not drawn) | 7.8
Cc1ccc(C2C(C(=O)c3cccs3)=C(O)C(=O)N2c2nnc(C)s2)cc1 (stereo not drawn) | 9.6
CCOC(=O)c1ccc(NC(C)=O)c([N+](=O)[O-])c1 | 3.7
CCOC(=O)c1sc2nc(CC(=O)OC)nc(N(C)CCc3ccccn3)c2c1C | -3.4
C/C(=N\NC(=O)c1n[nH]c2c1CCC2)c1ccco1 | 17.9
COC(=O)C1CCN(c2cnccn2)CC1 | 1.0
O=C(NC(NC(=S)Nc1ccccc1O)C(Cl)(Cl)Cl)c1ccco1 (stereo not drawn) | 20.5
O=C(/C=C/c1cccc([N+](=O)[O-])c1)NCCSCc1ccc(Cl)cc1 | 27.9
C=CCn1c2ccccc2c2nnc(SCC(=O)OCN3C(=O)c4ccccc4C3=O)nc21 | -1.9
Cc1cccc(Cl)c1NC(=O)N1CCN(c2ccnc3cc(Cl)ccc23)CC1 | 10.2

Among those listed so far, these have a tert-butyl group:
smiles | Calb biofilm kill
CC(C)(C)c1ccc(C(=O)NC(=S)Nc2nc3c(s2)CCCC3)cc1 | 5.8
CCc1cc2c(=O)c(-c3nc4ccccc4n3C)c(CCCC(=O)O)oc2cc1OC(=O)C(C)(C)C | 14.2
